ClpP mod: qHTS Assay for Activators of ClpP. ATP-dependent Clp protease proteolytic subunit (Bacillus subtilis (strain 168)), P80244. purified B. subtilis ClpP, FRET peptide cleavage, 20 min. Potency, µM (top dose mostly 57.5 µM), inactives show at the top dose activity change, negative = active. actives 1.9% (n = 340,000). AID 651965, 2013; active = well fitted falling curve with a large enough effect; inconclusive = small, poorly fitted or top-dose-only effect; inactive = no such curve, though single readings can be large or run the other way; note: potency is the fitted concentration of half-maximal effect; the source files actives as falling curves though it sought activators and does not explain the sign; nearly all actives have a fitted effect of over 65% in size; many hits overshoot -100%
Target sequence (P80244 whole entry, looked up): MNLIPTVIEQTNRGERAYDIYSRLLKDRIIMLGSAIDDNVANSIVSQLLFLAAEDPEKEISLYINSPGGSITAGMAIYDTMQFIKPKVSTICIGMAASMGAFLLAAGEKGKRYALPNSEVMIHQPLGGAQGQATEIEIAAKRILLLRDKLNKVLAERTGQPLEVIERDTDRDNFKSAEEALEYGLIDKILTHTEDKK
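Purified B. subtilis ClpP, 10 microg/mL final in Tris/HCl pH8 with KCl, BSA, glycerol and Tween-20, cleaved an Abz/nitrotyrosine-quenched decapeptide. Fluorescence (ex 320, em 430) was read at 0 and 20 min at room temperature. Delta was normalized to 5.8 microM ADEP and DMSO/no-enzyme controls.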
Menin MLL FP FL: menin-MLL binding inhibition, fluorescein peptide; Fluorescence polarization, fluorescein-MLL peptide displacement from menin; FP activity change, % at 61.4 µM; 290,000 tested, under 10 active; AID 1766; inconclusive = falling polarisation curve, or a change in total fluorescence; inactive = total fluorescence flat and polarisation flat or rising; no compound was filed as active; the % refers to the polarisation; negative = inhibition;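 note: % of control where 0% means no effect; inhibitors lower the polarisation; unlabelled MLL peptide was the positive control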
gsp ag: gsp mutant agonism | gsp mutant cells, cAMP HTRF, 30 min; control for the full effect not named in the record | Potency, µM (top dose mostly 76.9 µM), for the others: top-dose activation (cAMP increase), actives largely listed as activators | actives 0.13% (n = 340,000); active = well fitted activation curve with a large enough effect; inconclusive = small, poorly fitted or top-dose-only effect, or another doubt; inactive = no such curve, though single readings can be large or run the other way; cell line not stated here;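 note: phosphodiesterase inhibitor Ro 20-1724 added with compounds to block cAMP breakdown; potency is the fitted concentration of half-maximal effect; nearly all actives have a fitted effect of over 60% in size; about a fifth of the inactives were tested at one dose only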
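Cells stably selected in G418 were plated at 2000/well, grown 16-24 hr, then given compounds in DMSO with the PDE inhibitor […] (300 uM solution added) for 30 min at 37C; cAMP was read by HTRF.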
TRPML1 agonist: activates the human TRPML1 channel | actives 0.12% (n = 410,000) | TRPML1-expressing cells, Ca2+ dye fluorescence, FDSS; host cell line not named in the record; reference of the full effect not given here | activation, % (concentration not given with the values) | Q9GZU1; in the data active = activation above about 50%; inconclusive = about 30% to 50%; inactive = below about 30%; note: 0% is about no effect; the text of the record puts the active cut at 80%
Target sequence (Q9GZU1 whole entry, looked up): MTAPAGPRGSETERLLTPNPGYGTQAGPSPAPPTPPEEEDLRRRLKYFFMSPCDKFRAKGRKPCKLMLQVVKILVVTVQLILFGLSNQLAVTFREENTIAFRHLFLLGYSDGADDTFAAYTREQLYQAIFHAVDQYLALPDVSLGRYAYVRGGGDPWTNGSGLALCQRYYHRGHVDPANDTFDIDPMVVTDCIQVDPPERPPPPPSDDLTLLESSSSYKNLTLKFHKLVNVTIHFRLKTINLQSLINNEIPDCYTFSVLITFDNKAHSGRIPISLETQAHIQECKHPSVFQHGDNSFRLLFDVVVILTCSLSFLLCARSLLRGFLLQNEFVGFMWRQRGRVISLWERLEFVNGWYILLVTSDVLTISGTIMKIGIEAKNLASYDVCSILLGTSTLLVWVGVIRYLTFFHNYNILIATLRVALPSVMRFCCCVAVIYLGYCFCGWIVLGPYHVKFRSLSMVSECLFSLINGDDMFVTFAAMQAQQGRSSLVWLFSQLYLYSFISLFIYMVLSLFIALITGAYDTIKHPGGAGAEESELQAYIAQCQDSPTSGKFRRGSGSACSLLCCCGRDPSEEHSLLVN
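TRPML1-DL cells, Tet-induced overnight (~16 h, 37 degrees C), loaded 45-90 min at room temperature with Ca8 no-wash calcium dye plus quencher. FDSS fluorescence: 10 s baseline, compound pin-transfer, 110 s agonist read, then EC80 54-4 (4uM final) and 110 s antagonist read.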
TRPML1 inh: blocks the human TRPML1 channel. TRPML1-inducible cells, Ca2+ dye fluorescence, FDSS; stronger effect = lower value; inhibition of EC80 agonist-evoked calcium signal. actives 0.02% (n = 390,000). activity change, negative = inhibition, % (test concentration not listed). AID 624415; in the data active means activity change below about -50%; inconclusive means about -30% to -50%; inactive means above about -30%;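 note: stimulus is agonist 54-4 at its EC80 concentration; % is set by controls: 0 for no effect and ±100 for the full control effect; compound concentration not given in the record; the text of the record puts the active cut at -80%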
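Tet-induced TRPML1-DL cells loaded with Ca8 no-wash calcium dye were read kinetically on FDSS. Compound addition was followed by EC80 agonist 54-4 (4 uM final); inhibition was read over 110 s.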
gsp antagonist: gsp mutant antagonism. gsp-mutant cells, cAMP HTRF, 30 min; control for the full effect not named in the record. Potency, µM (series often up to 76.9 µM), for the others: top-dose activity change, negative = inhibition, most hits filed as inhibitors. actives 0.4% (n = 340,000); active = falling curve of any shape with a large fitted effect; inconclusive = falling curve, mostly with a smaller effect; inactive = flat or rising curve; cell line not stated here;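 note: intracellular cAMP measured with PDE inhibitor Ro 20-1724 present during compound exposure; potency is the fitted concentration of half-maximal effect; % is set by controls: 0 for no effect and ±100 for the full control effect; nearly all actives have a fitted effect of over 65% in size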
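HTRF cAMP measurement after 30 min RT detection following 30 min, 37C compound treatment alongside […] (added as 300 uM solution) in G418-selected cells seeded at 2000/well and grown 16–24 h.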
The depositor's hits bear a star; ? = inconclusive; / = not tested or not shown; & = joins results of further samples; [ ] = another dose, or the depositor's remark.

SMILES	ClpP mod	Menin MLL FP FL	gsp ag	TRPML1 agonist	TRPML1 inh	gsp antagonist
Cc1nn(Cc2ccccc2)c(Cl)c1/C=N/NC(=O)c1cccnc1	-3.1%	2.0	-26%	0.6	0	7%
CCCN(Cc1nnc(-c2ccccc2Cl)o1)C(=O)c1oc2ccccc2c1C	0.9%	/	3%[15.4 µM]	5.1	48	?
CCOC(=O)C1C(c2ccc(C)o2)NC(=O)NC1(O)C(F)(F)F (stereo unspecified)	-4.1%	0.6	-3%[15.4 µM]	0.6	9	14%
COc1cccc(/C=N/NC(=O)c2nnn(-c3nonc3N)c2-c2cccs2)c1	-8.3%	-7.6	?	-1.2	-7	?
CCCn1c(/C=C/c2cc[n+](C)cc2)nc2ccccc21	/	?	?	2.4	-6	12%
O=C(Nc1sc2c(c1C(=O)O)CCCCC2)c1ccccc1F	/	2.4	-3%	-0.3	-12	-23%
COc1ccc(NS(=O)(=O)c2cccc(C(=O)NNC(=O)c3cccc(NC(C)=O)c3)c2)cc1	-0.4%	/	?	-0.6	3	-5%
COC(=O)CC1SC(=O)NC1=O (stereo unspecified)	-0.4%	4.3	-6%	0.2	-3	9%
COc1ccccc1C(=O)Nc1ccc2c(c1)nc(CCNC(=O)c1ccco1)n2C	-1.8%	-9.5	3%[15.4 µM]	-0.9	-13	10%
CC1CCC(NC(=O)C2CCN(c3nc4ccccc4s3)CC2)CC1 (stereo unspecified)	-6.8%	/	-15%[15.4 µM]	-1.1	59	12%
COc1ccccc1OCCSc1nc2ccccc2n1CC(=O)O	-0.3%	/	-129%[inhibitor]	-0.1	-11	/
Cc1ccccc1C(=O)NN(C)c1nc2ccccc2nc1C(F)(F)F	-2.1%	-0.3	14%	0.9	-22	-4%[15.4 µM]
COc1ccc(-c2nnc(SCC(=O)c3cccs3)o2)cc1	2.1%	-0.3	6%	-0.6	1	3%
COc1ccc(N=C2C(=Nc3ccc(OC)cc3)N(c3ccccc3)C(=S)N2C(=O)c2ccc(Cl)cc2)cc1	1.9%	4.6	-24%	0.0	23	3%
Cn1cc([N+](=O)[O-])c(C(=O)NCC(=O)O)n1	-4.0%	5.2	-22%	1.0	6	-12%
COC(Cc1ccccc1N1CCCC1=O)OC	1.4%	-5.8	-3%	-0.1	1	4%
Cn1c(CN2CCN(CC#N)CC2)c(C#N)c2ccccc21	-2.0%	1.8	14%	0.3	10	-5%
Nc1c(C(=O)c2ccccc2)sc(Nc2ccc(Cl)c(Cl)c2)c1C(=O)Nc1ccccc1	1.0%	/	/	0.9	3	/
COc1nnc(-c2ccc(C)cc2)c2ccccc12	/	-0.6	-39%[inhibitor]	-0.5	7	-9%
COc1ccc(CCNC(=O)c2ccc(CS(=O)(=O)c3ccc(C)cc3)o2)cc1OC	0.9%&-0.7%	2.7	?	-1.1&-0.6	4&11	-20%
CCC(C)C(=O)Nc1ncc2c(n1)CC(c1cccs1)CC2=O (stereo unspecified)	-3.8%	2.2	11%	-0.5	9	4%
CC(C)Sc1nnc(NC(=O)c2ccc3c(c2)OCO3)s1	-12%	/	11%[15.4 µM]	-0.7	3	-6%
O=C(Cn1nc(-c2cccs2)ccc1=O)Nc1ccc(Br)cc1	/	2.6	29%	0.7	42	-9%
Cc1ccsc1C(=O)OCC(=O)NC1CCCCC1C (stereo unspecified)	0.8%	/	?	4.9	14	2%
O=C(COC(=O)/C=C/c1ccc(Cl)cc1Cl)NCc1ccco1	/	2.4	10%[15.4 µM]	1.4	-13	-4%
CC1CCc2nc(NC(=O)CSc3nc4ccccc4o3)sc2C1 (stereo unspecified)	6.9%	-1.3	-3%	5.5	1	?
O=C1CN(C(=O)c2ccccc2F)C(c2ccc(F)cc2)c2cc(F)ccc2N1 (stereo unspecified)	/	2.4	-22%	2.5	-11	-2%
Cc1cccc(Nc2nnc(SCC(=O)NC(=O)Nc3ccc4c(c3)OCCO4)s2)c1	-2.4%	/	1%	0.5	7	4%
CCCC(C(=O)NNC(=O)c1ccncc1)c1ccccc1 (stereo unspecified)	/	/	?	-0.2	-13	5%
CCOC(=O)CCP(=O)(O)C(C)(O)c1ccccc1 (stereo unspecified)	0.7%	4.1	8%	0.3	3	-1%
CCc1ccc(NC(=S)NCc2cccnc2)cc1	/	-0.6	-5%	0.3	-7	7%
O=C1Cc2ccccc2Sc2ccccc21	-1.6%	5.3	34%	3.2	-1	11%
CN(C)CCNC(=O)c1cccc2[nH]c(-c3ccncc3)nc12	?	/	-8%	-0.3	6	7%
O=C(CCC(=O)OCC(F)(F)C(F)F)Nc1ccc(F)cc1F	-3.9%	8.9	22%	1.6	25	5%
CCOc1ccc(NS(=O)(=O)c2cc(C(=O)N3CCC3)ccc2Cl)cc1	-4.0%	/	-36%[inhibitor]	1.9	0	-8%
Cc1cc(C)c(NC(=O)CSc2nc(=O)[nH]c3c2CCCC3)c(C)c1	-8.6%	/	/	-0.8	-18	/
Cc1cc(C(=O)COc2cccnc2[N+](=O)[O-])c(C)n1-c1ccccc1F	0.2%	0.6	-13%	0.9	1	7%
CCOC(=O)N1CCC(NC(=O)c2cccc3c2C(=O)N(CCOC)C3)CC1	1.6%	5.6	7%	-0.2	-1	-6%
CCc1ccc(OCCOCC(O)CNC(C)(C)C)cc1 (stereo unspecified)	1.3%	7.6	11%	-0.2	-17	1%
Cc1cc(C)cc(NC(=S)NCc2cccnc2)c1	-7.6%	1.4	-16%	-0.4	-19	9%
COc1cnc(-c2ccccn2)nc1Oc1ccc(Cl)c2ccccc12	1.3%	2.7	-38%[inhibitor]	-0.9	9	7%
O=C(COc1ccccc1)Nc1nc(-c2cccnc2)cs1	0.8%	/	-13%	1.0	0	-1%
Cc1ccc(-c2noc(C3CCCN(C(=O)C4CCCCC4)C3)n2)o1 (stereo unspecified)	-1.3%	2.7	15%	-0.9	-2	-25%
CC(=O)Nc1ccc(S(=O)(=O)NCC(=O)OCC(=O)c2ccc[nH]2)cc1	1.2%	/	3%	4.2	12	0%
COc1ccc(N2CC(C(=O)N/N=C/c3cccs3)CC2=O)cc1 (stereo unspecified)	2.0%	-0.9	2%	0.7	27	-26%
O=C(CCc1ccccc1)NC(=S)Nc1ccccc1[N+](=O)[O-]	-1.8%	3.7	-20%	0.6	39	-1%
CSc1nnc(-c2cccs2)n1C	/	1.6	-21%[15.4 µM]	-0.6	-8	10%
Cc1nn(CCCC(=O)O)c(C)c1[N+](=O)[O-]	/	2.6	1%	-0.1	-2	0%
O=C(Nc1cccc(-c2nc3ccccc3s2)c1)C1=COCCO1	1.4%	4.0	-2%	0.7	10	-27%
C=CCc1cccc2cc(C(=O)Nc3cccc(Cl)c3)c(=O)oc12	1.5%	/	/	-0.4	12	/
O=S1(=O)N=C(c2ccccc2)c2ccccc21	/	/	-9%	2.2	9	-9%
COc1ccc(C(CNC(=O)CSc2ccc(Br)cc2C)N2CCOCC2)cc1 (stereo unspecified)	-2.9%	/	-3%[15.4 µM]	0.1	15	2%
CCOC(=O)c1cnc(SC)nc1Oc1cccc(NS(=O)(=O)c2ccc(F)cc2)c1	-5.4%	0.6	-15%	0.9	12	-2%
Clc1ccc(NC2=NCCC2)cc1Cl	-3.9%	2.7	-32%[inhibitor]	1.3	-7	5%
CCCCNC(=O)c1cccc(NC(=O)c2nsc3ccccc23)c1	24%	/	/	1.5	-9	/
CCOC(=O)c1cccc(NC(=O)CC2C(=O)N(c3ccc(F)cc3)C(=O)N2C(C)C)c1 (stereo unspecified)	1.8%	/	/	0.8	-9	/
O=[N+]([O-])c1ccc2c(c1N1CCCCC1)=NC1(CCCCC1)[N+]=2[O-]	/	7.7	-8%[15.4 µM]	0.3	0	-6%
COc1ccc(OCCSc2n[nH]c(N)n2)cc1	-2.2%	8.2	4%	1.1	12	-7%
Cc1cc(C)n(C(=O)COc2ccccc2[N+](=O)[O-])n1	-1.3%	1.1	17%[15.4 µM]	-0.6	13	-10%
Cc1ccc(NC(=S)Nc2cccc3cnccc23)cc1	-1.7%	-6.2	1%	3.5	-9	-2%
The list goes on.
SMILES	ClpP mod	Menin MLL FP FL	gsp ag	TRPML1 agonist	TRPML1 inh	gsp antagonist
C[C@H](NC(=O)c1nc[nH]c1C(=O)NCc1ccc(CNC(=O)OC(C)(C)C)cc1)c1ccccc1	2.8%	/	/	1.0	40	-23%
CCC(=O)N1CCN(c2ccc(OC)cc2[N+](=O)[O-])CC1	0.4%	2.8	0%	0.3	10	9%
COc1ccc(-c2cn3nc(SCC(=O)Nc4cc(C)cc(C)c4)ccc3n2)cc1	?	/	/	-1.1	-1	/
O=C(c1cccnc1NCc1ccc(F)cc1)N1CCOCC1	-17%	-3.3	-5%	-0.1	39	11%
COc1ccc(C2C3=C(CCCC3=O)Nc3nc(C(F)(F)F)nn32)c(OC)c1OC (stereo unspecified)	19%	-0.4	-20%	0.9	6	-7%
Cc1c(NC(=O)c2ccc(Cl)cc2)cc(C(C)C)c(O)c1S(=O)(=O)c1ccccc1	-1.5%	/	/	0.2	-13	/
CN(Cc1ccccc1)c1nc2c(c(=O)n(C)c(=O)n2C)n1CCCc1ccccc1	-1.2%	0.6	24%	-0.2	22	8%

Given with values under each structure: entries from further up.
The line under a structure holds: ClpP mod, Menin MLL FP FL, gsp ag, TRPML1 agonist, TRPML1 inh, gsp antagonist
> CCCCNC(=O)c1cccc(NC(=O)c2nsc3ccccc23)c1
→ 24%, /, /, 1.5, -9, /
> CCOC(=O)c1cccc(NC(=O)CC2C(=O)N(c3ccc(F)cc3)C(=O)N2C(C)C)c1 (stereo unspecified)
→ 1.8%, /, /, 0.8, -9, /
> O=[N+]([O-])c1ccc2c(c1N1CCCCC1)=NC1(CCCCC1)[N+]=2[O-]
→ /, 7.7, -8%[15.4 µM], 0.3, 0, -6%
> COc1ccc(OCCSc2n[nH]c(N)n2)cc1
→ -2.2%, 8.2, 4%, 1.1, 12, -7%
> Cc1cc(C)n(C(=O)COc2ccccc2[N+](=O)[O-])n1
→ -1.3%, 1.1, 17%[15.4 µM], -0.6, 13, -10%
> Cc1ccc(NC(=S)Nc2cccc3cnccc23)cc1
→ -1.7%, -6.2, 1%, 3.5, -9, -2%
> C[C@H](NC(=O)c1nc[nH]c1C(=O)NCc1ccc(CNC(=O)OC(C)(C)C)cc1)c1ccccc1
→ 2.8%, /, /, 1.0, 40, -23%
> CCC(=O)N1CCN(c2ccc(OC)cc2[N+](=O)[O-])CC1
→ 0.4%, 2.8, 0%, 0.3, 10, 9%
> COc1ccc(-c2cn3nc(SCC(=O)Nc4cc(C)cc(C)c4)ccc3n2)cc1
→ ?, /, /, -1.1, -1, /
> O=C(c1cccnc1NCc1ccc(F)cc1)N1CCOCC1
→ -17%, -3.3, -5%, -0.1, 39, 11%

Random draw from the library, and some 2.1% of all compounds hit somewhere here.
